Screening data: PubChem, National Center for Advancing Translational Sciences (NCATS)
RE007 growth inh – less growth of the S. pombe RE007 Vpr strain; S. pombe RE007 Vpr strain, BacTiter-Glo ATP luminescence, 24 h; control for the full effect not named in the record; Potency, µM (titrated, usually from 92.2 µM), for the others: at the highest dose activity change, negative = less growth; actives 0.21% (n = 360,000); AID 651644; active = well fitted falling curve with a large enough effect; inconclusive = small, poorly fitted or top-dose-only effect; inactive = no such curve, though single readings can be large or run the other way;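 also: % is scaled to controls: 0 for no effect and ±100 for the full control effect; nearly all actives have a fitted effect of over 50% in size; the assay follows cell death caused by Vpr and the record does not say whether a fall means rescue or toxicity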
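Fission yeast strain RE007, carrying one chromosomally integrated HIV-1 vpr copy, was seeded at OD 0.01 in PMG+AL medium with 23 nL pinned compound. After 24 h at 30 °C and 99% humidity, viability was read by BacTiter-Glo luminescence.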
StopGo reporter – lowers the luciferase signal of an FMDV 2A StopGo reporter; human cells with a luciferase reporter of 2A StopGo recoding; control for the full effect not named in the record; Potency, µM (highest dose often 57.9 µM), for inactives: top-dose signal change, negative = less light; actives 1.2% (n = 410,000); active = well fitted falling curve with a large enough effect; inconclusive = small, poorly fitted or top-dose-only effect; inactive = no such curve, though single readings can be large or run the other way; tested in HEK293T cells; also: % is scaled to controls: 0 for no effect and ±100 for the full control effect; nearly all actives have a fitted effect of over 45% in size; luciferase light after 4 h
Cruzain Triton – blocks cruzain activity in presence of Triton detergent | purified cruzain, Z-FR-AMC fluorescence, 0.01% Triton | P25779 | Potency, µM, for inactives: max response, negative = inhibition, actives largely listed as inhibitors | actives 0.43% (n = 200,000); active = well fitted curve in the direction sought with a large enough effect; inconclusive = small, poorly fitted or top-dose-only effect, or another doubt; inactive = no such curve, though single readings can be large; an effect the other way counts as inactive or inconclusive;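 also: plate controls were neutral wells for no effect and buffer without enzyme for full effect; nearly all actives have a fitted effect of over 40% in size; top concentration of the series not given in the record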
Target sequence (P25779 123-467 limits assumed): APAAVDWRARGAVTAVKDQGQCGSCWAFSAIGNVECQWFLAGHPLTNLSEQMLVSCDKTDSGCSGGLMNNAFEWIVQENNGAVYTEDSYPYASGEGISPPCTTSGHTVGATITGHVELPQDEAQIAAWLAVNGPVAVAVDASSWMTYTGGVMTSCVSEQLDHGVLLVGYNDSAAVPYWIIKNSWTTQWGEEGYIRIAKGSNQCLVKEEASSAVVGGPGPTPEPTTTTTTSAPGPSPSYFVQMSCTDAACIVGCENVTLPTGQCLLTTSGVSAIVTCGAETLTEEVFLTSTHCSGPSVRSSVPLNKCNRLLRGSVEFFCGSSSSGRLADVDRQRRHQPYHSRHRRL
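Steps: dispense cruzain (1.5 nM final) in acetate buffer pH 5.5 with DTT and 0.01% Triton X-100; pin-transfer compounds; incubate 15 min RT; add Z-FR-AMC (2 uM final); read fluorescence every 30 s, using the 60 s intensity change.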
Cruzain inh noDet – inhibitors of Trypanosoma cruzi cruzain without detergent; P25779; purified cruzain, Z-FR-AMC fluorescence, no detergent; Potency, µM, without a hit: max response, negative = inhibition, actives largely listed as inhibitors; actives 2.3% (n = 200,000); active = well fitted curve in the direction sought with a large enough effect; inconclusive = small, poorly fitted or top-dose-only effect, or another doubt; inactive = no such curve, though single readings can be large; an effect the other way counts as inactive or inconclusive;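 also: plate controls were enzyme without inhibitor for no effect and buffer without enzyme for full effect; nearly all actives have a fitted effect of over 40% in size; top concentration of the series not given in the record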
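Purified cruzain at 1.5 nM, pre-incubated 15 min with compound at room temperature in 100 mM sodium acetate pH 5.5, 5 mM DTT, 0.00005% Triton X-100. Reaction started with 2 uM Z-FR-AMC; AMC fluorescence increase over 60 s gives rate.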
NS1 function inh – influenza NS1 inhibition. Potency, µM (doses to about 46.1 µM), inactives show top-dose activity, positive = more growth. actives 0.4% (n = 270,000). S. cerevisiae slowed by influenza A NS1, growth recovery by OD600; also: actives are rising curves; nearly all actives have a fitted effect of over 50% in size
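Compounds were scored for reversing the slow growth caused by influenza A NS1 in S. cerevisiae, measured by optical density at 600 nm. Assay medium contained 2% galactose at pH 6.0; NS1-free yeast of the same strain were the positive control.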
SARS PLP yeast – SARS-CoV PLP inhibition in yeast; S. cerevisiae expressing SARS-CoV PLpro, growth rescue; control for the full effect not named in the record; actives 0.19% (n = 330,000); Potency, µM (titrated, usually from 32.9 µM), for the others: at the highest dose activity, positive = growth rescue; AID 485353; also: 0% is about no effect; nearly all actives have a fitted effect of over 55% in size; growth read by luminescence after 48 h
LASV entry inh – Lassa virus entry inhibition. Lassa virus pseudotype entry inhibition, cell reporter; control for the full effect not named in the record. Potency, µM (top dose mostly 37.9 µM), without a hit: top-dose activity change, negative = inhibition, hits mostly inhibitors. actives 1.2% (n = 300,000); active means well fitted inhibition curve with a large enough effect; inconclusive means small, poorly fitted or top-dose-only effect, or effect the other way; inactive means flat fitted curve, though single readings scatter; tested in HEK293 cells; also: % is scaled to controls: 0 for no effect and ±100 for the full control effect; nearly all actives have a fitted effect of over 50% in size; luciferase read-out
Marburg entry inh – Marburg virus entry inhibition | Marburg virus pseudotyped entry inhibition, cell reporter; control for the full effect not named in the record; about a third of the inactives were read at about 46 µM | Potency, µM (doses to about 37.8 µM), without a hit: top-dose activity change, negative = inhibition, hits mostly inhibitors | actives 1.8% (n = 300,000); active = well fitted inhibition curve with a large enough effect; inconclusive = small, poorly fitted or top-dose-only effect, or effect the other way; inactive = flat fitted curve, though single readings scatter; tested in HEK293 cells; about a fifth of its hits are not listed in these tables; also: % is scaled to controls: 0 for no effect and ±100 for the full control effect; luciferase read-out
* = called active by the depositor; ? = inconclusive; / = not tested or not shown; & = joins results of further samples; [ ] = dose if it differs, or a comment. Unless noted, calls follow the shape of the dose curve; as a rule, active means well fitted rising curve with a large enough effect; inconclusive means small, poorly fitted or top-dose-only effect; inactive means no such curve, though single readings can be large or run the other way. Potency is read from the fitted curve at half-maximal effect.

Values run as follows: Marburg entry inh, LASV entry inh, Cruzain Triton, Cruzain inh noDet, NS1 function inh, SARS PLP yeast, RE007 growth inh, StopGo reporter
- CSc1cccc(CN2CCCC(C(=O)Nc3cccc(-n4cccn4)c3)C2)c1 (stereo not given)
  -29%, -15%, /, /, 20%, 5%, 3%, -16%
- Cc1ccc(C23CC4CC(CC(C(=O)N(C)C)(C4)C2)C3)cc1
  -21%[46.1 µM], 1%[46.1 µM], /, /, -3%, -1%, 5%, -24%
- O=C(CSc1n[nH]c(-c2ccc(F)cc2)n1)NCc1ccccc1Cl
  /, ?, -6.2%, -6%, /, /, /, ?
- CCOC(=O)N1CCC(NC(=O)c2ccc3c(c2)N(Cc2ccc(F)cc2)CCS3)CC1
  -1%, /, -13%, 9%, 23%, 6%, 21%, ?
- CC(=O)Nc1ccc(NC(=O)Nc2cc(C)cc(C)c2)cc1
  17%[46.1 µM], 3%, /, /, 14%, 1%, 0%, 29%
- CC(=O)c1ccc(OC(=O)N(c2ccccc2)c2ccccc2)cc1
  ?, 1%, -5.0%, -1%, -17%, -1%, 3%, ?
- Cc1sc2ncnc(NCC3(N4CCOCC4)CCCCC3)c2c1C
  15%, 1%, 14%, 10%, 11%, 2%, 5%, 0%
- Cc1ccc(NC(=O)Cn2c(=O)n(CCc3ccccc3)c(=O)c3sc4ccccc4c32)cc1C
  ?, 15%[46.1 µM], -1.5%, -29%, /, /, /, 10%
- Clc1ccccc1N1CCN(Cc2ccc3c(c2)OCO3)CC1
  /, /, /, /, -6%, 2%, -23%, -24%
- CCCc1nnc(NC(=O)CCC(=O)Nc2ccc(F)cc2)s1
  -12%, 26%, 2.9%, -5%, 7%, 1%, 14%, /
- CCn1c(SCC(=O)N2CCCc3ccccc32)nc2cccnc21
  -9%, 7%, -4.5%, 1%, -1%, -1%, 21%, -9%
- O=C(COC(=O)c1ccc(F)cc1F)Nc1cc(S(=O)(=O)N2CCOCC2)ccc1Cl
  -4%[46.1 µM], -5%, /, /, /, -2%, -2%, -24%
- O=C(C1CCCO1)N1CCN(C(=S)Nc2ccc(Cl)cc2Cl)CC1 (stereo not given)
  ?, ?, 0.4%, 11%, 10%, 7%, 1%, 16%
- CN(C1CCCCC1)S(=O)(=O)c1ccc2c(c1)c(=O)c(C(=O)NCc1ccc(Cl)cc1)cn2C
  -4%[46.1 µM], 9%[46.1 µM], -2.0%, 1%, /, /, /, 7%
- CC(C(=O)NC1C=CS(=O)(=O)C1)N1C(=O)/C(=C/c2ccc(Cl)cc2)SC1=S (stereo not given)
  /, /, /, /, -29%, -2%, -4%, -21%

Structural class, the compounds so far with fluorine.
Values run as follows: Marburg entry inh, LASV entry inh, Cruzain Triton, Cruzain inh noDet, NS1 function inh, SARS PLP yeast, RE007 growth inh, StopGo reporter
- O=C(CSc1n[nH]c(-c2ccc(F)cc2)n1)NCc1ccccc1Cl
  /, ?, -6.2%, -6%, /, /, /, ?
- CCOC(=O)N1CCC(NC(=O)c2ccc3c(c2)N(Cc2ccc(F)cc2)CCS3)CC1
  -1%, /, -13%, 9%, 23%, 6%, 21%, ?
- CCCc1nnc(NC(=O)CCC(=O)Nc2ccc(F)cc2)s1
  -12%, 26%, 2.9%, -5%, 7%, 1%, 14%, /
- O=C(COC(=O)c1ccc(F)cc1F)Nc1cc(S(=O)(=O)N2CCOCC2)ccc1Cl
  -4%[46.1 µM], -5%, /, /, /, -2%, -2%, -24%

New compounds follow
Values run as follows: Marburg entry inh, LASV entry inh, Cruzain Triton, Cruzain inh noDet, NS1 function inh, SARS PLP yeast, RE007 growth inh, StopGo reporter
- Cc1ccc(S(N)(=O)=O)cc1NC(=O)c1c(-c2c(Cl)cccc2Cl)noc1C
  -23%[46.1 µM], -2%[46.1 µM], -5.0%, -6%, /, /, /, -20%
- CCN1C(=O)c2cccc3c(NC(=O)c4ccc5c(c4)OCCO5)ccc1c23
  10%, -31%, 7.1%, ?, 2%, 3%, 20%, /
- Cc1ccccc1CNC(=O)C1CCN(S(=O)(=O)Cc2ccccc2)CC1
  -13%[46.1 µM], 11%[46.1 µM], -2.9%, -3%, /, /, /, -27%
- CC(C)(C)c1ccc(C(=O)NC(=O)COC(=O)CCS(=O)(=O)c2ccccc2)cc1
  21%, 0%, /, /, /, -8%, -8%, 15%
- Cc1ccc(C)n1-c1nnc(N2CCC(C(=O)NCCCN3CC(C)CC(C)C3)CC2)s1 (stereo not given)
  /, /, /, /, -5%, 2%, -10%, -23%
- Cc1ccc(NC(=O)C2CCCN(S(=O)(=O)c3c(C)noc3C)C2)cc1F (stereo not given)
  1%[46.1 µM], 7%, -2.4%, 5%, -1%, 3%, -2%, ?
- O=C(CCCSc1nc2ccccc2s1)NCc1ccc2c(c1)OCO2
  ?, 0%, -7.9%, 4%, 0%, 9%, -16%, 0%
- Cc1ccc(C(=O)NCCc2nnc3ccc(SCC(=O)Nc4ccc(C)cc4C)nn23)cc1
  ?, -14%, -3.1%, 17%, -3%, -2%, 8%, -22%
- O=C(CCCc1ccccn1)c1cccc2ccccc12
  ?, ?, /, /, /, /, -24%, 0%
- O=C(Nc1ccccc1C(F)(F)F)c1ccccn1
  30%[46.1 µM], /, /, /, /, 1%, -19%, 49%[activator]
- CC(C)(C)c1cc(OC(=O)c2ccncc2)ccc1O
  6%[46.1 µM], -3%, -4.4%, 3%, 16%, -42%, -5%, -12%
- Cc1ccc(N2CC(C(=O)NCCS(=O)(=O)N3CCN(c4ccccc4)CC3)CC2=O)cc1 (stereo not given)
  /, 4%[46.1 µM], 0.3%, -6%, 9%, -4%, 22%, 2%&-1%
- CCSc1nc(N2CCCCC2)c2c(c1C#N)CCCC2
  -14%, ?, -4.1%, -9%, 2%, 1%, -1%, 0%
- CC12CCC(=O)C=C1CC(N1CC1)C1C2CCC2(C)C(O)CCC12 (stereo not given)
  ?, ?, /, /, /, /, 3%, 2%
- CN(C)c1ccc(CNC(=O)CCn2c(=O)c3cccn3c3ccc(F)cc32)cc1
  /, 6%[46.1 µM], -1.1%, 16%, /, /, /, 11%
- COc1ccccc1CNC(=O)CSc1nc(=O)n(Cc2ccncc2)c2c1CCC2
  0%, ?, /, /, /, 4%, 14%, 0%
- COc1ccc(CC(=O)Nc2ccc(C(=O)O)cc2NC(=O)Cc2ccc(OC)cc2)cc1
  /, /, /, /, 6%, 0%, 17%, -7%
- COc1ccccc1CNC(=O)CC(C)C
  -7%, -2%, 7.0%, 3%, -1%, 2%, -7%, -2%
- CSc1ncccc1C(=O)OCC(=O)N1CCOCC1
  ?, -14%, 5.0%, -5%, -3%, 11%, -8%, /
- CC1(C)CC(=O)C2=C(C1)Nc1ccccc1NC2c1ccc(F)c(F)c1 (stereo not given)
  /, /, /, /, -4%, 2%, 2%, -11%
- CCCOc1ccc(N2CC(C(=O)Nc3ncccc3C)CC2=O)cc1 (stereo not given)
  -7%[46.1 µM], 9%, 5.7%, 7%, -9%, 3%, 4%, -21%
- CCCOc1ccc(NC(=O)CC2C(=O)N(c3ccccc3)C(=O)N2Cc2ccco2)cc1 (stereo not given)
  /, -5%[46.1 µM], -4.6%, ?, /, /, /, -9%
- COC(=O)c1cccc(C(=O)Oc2cccc(Br)c2)n1
  16%, -10%, 3.5%, 0%, -59%, -3%, ?, 12%
- COc1ccc(-c2nc3sc(CCNC(=O)C(C)(C)C)c(C)n3n2)cc1
  /, 1%[46.1 µM], -1.3%, ?, /, /, /, -40%
- CC1(C)CC(=O)c2cnc(N3CCc4ccccc43)nc2C1
  0%[14.2 µM], -26%, /, /, -7%, 0%, 3%, -12%
- COc1ccccc1Cn1cnc2cccnc21
  14%, 17%, 1.2%, -3%, -60%, 20%, 7%, 11%
- O=C(O)C(Oc1ccc2ccccc2c1)c1ccccc1 (stereo not given)
  -5%[46.1 µM], 4%, /, /, /, /, -25%, 3%
- COc1ccc(-c2noc(-c3cc(Cl)ccc3Cl)n2)cc1OC
  -6%, /, 3.2%, -26%, -13%, 10%, /, /
- COc1ccc(CCNC(=O)Cn2c(=O)n(CC3CCCO3)c(=O)c3cc(OC)c(OC)cc32)cc1OC (stereo not given)
  /, /, /, /, -1%, 2%, 1%, -15%
- Cc1ccc(S(=O)(=O)N2CCN(S(C)(=O)=O)CC2)cc1
  7%, -5%, /, /, /, /, 1%, 12%
- Cn1cc(C(=O)O)c(=O)c2cc(S(=O)(=O)N3CCOCC3)ccc21
  /, 6%[46.1 µM], 2.2%, 3%, /, /, /, ?
- CCCCc1nc2ccccc2c(=O)n1NC(=O)c1c(O)c2cccc3c2n(c1=O)CCC3
  /, /, -5.8%, ?, -3%, 3%, /, /
- COc1cc(NC(=O)N[C@H](C(=O)O)C(C)C)cc(OC)c1
  3%, -4%, 3.1%, -7%, 7%, -4%, 3%, 0%
- CCOC(=O)CNS(=O)(=O)c1ccc(C(=O)O)cc1
  2%, 17%, 4.3%, -7%, -1%, 2%, 5%, 3%
- COc1cc(N2C(=O)CC(=O)NC2=O)cc(OC)c1OC
  -1%, -1%, /, /, ?, 8%, -5%, -3%
- COc1ccc(C(=O)O/N=C(\N)c2ccccn2)cc1[N+](=O)[O-]
  ?, ?, /, /, -27%, 0%, -9%, 49%[activator]
- CCOC(=O)C(=O)Nc1ccccc1C(N)=O
  -5%[46.1 µM], 7%, 5.0%, 7%, -1%, 0%, -2%, -2%
- Cc1cccnc1NC(=O)c1cccc(S(=O)(=O)N2CCCc3ccccc32)c1
  -9%, -15%, /, /, 4%, 1%, -1%, -25%
- COc1ccc(C)cc1NC(=O)N1CCN(c2cc(-c3noc(C)n3)ccc2C)CC1
  /, 17%[46.1 µM], -3.1%, ?, /, /, /, -26%
- S=C(NNc1nc(Nc2ccccc2)nc(N2CCCCC2)n1)NC1CCCCC1
  10µM*, -6%, /, /, /, 1%, -4%, -15%
- CCOC(=O)N1CCC(N2Cc3cccc(C(=O)NCc4ccc(OC)cc4)c3C2=O)CC1
  5%, ?, -5.3%, ?, ?, -40%, /, /
